Screens as filed in PubChem BioAssay.
Ecoli rRNA inh: inhibits bacterial ribosomal RNA function over humanized ribosomes | E. coli WT GFP vs humanized-ribosome RFP mutants, fluorescence, 24 h; stronger effect = lower value; DMSO median 0, no signal -100 | AID 720706 | actives 1.6% (n = 350,000) | GFP signal change (wild-type ribosome), % (no concentration beside the values);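 active = significant combined selectivity score with lowered wild-type GFP, culture density cut under 30%, mutant RFP and density less affected; inactive = any of these conditions unmet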; also: one replicate is shown; some compounds called inactive have numbers as strong as hits
FGF22 binding: shifts melting point of recombinant human FGF22; recombinant FGF22 thermal shift, SYPRO orange fluorescence; percent of sucrose octasulfate shift, DMSO zero; actives 1.5% (n = 340,000); Q9HCT0; calls only at 9.99 µM; AID 651658;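 active = melting point raised past a set limit in the mean and every replicate; three in four hits are not shown here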
Target sequence (Q9HCT0 whole entry, looked up): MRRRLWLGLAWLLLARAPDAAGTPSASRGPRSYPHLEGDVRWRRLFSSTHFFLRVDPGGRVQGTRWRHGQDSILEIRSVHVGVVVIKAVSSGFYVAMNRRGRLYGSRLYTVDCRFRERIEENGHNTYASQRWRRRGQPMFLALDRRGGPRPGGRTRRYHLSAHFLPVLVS
Ecoli rRNA inh OD600: second read-out of Ecoli rRNA inh, no call of its own (marks repeat the call); OD600 change, %; measured here: OD600 growth;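 optical density of the mix in the first replicate; 0 = DMSO median and -100 = no signal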
Ecoli rRNA inh RFP: recorded beside Ecoli rRNA inh, whose call it bears; RFP signal change, %; measured here: RFP humanized mutant strains;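 first replicate; 0 = DMSO median and -100 = no signal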
* marks the source's active call; other numbers are inactive results; i = inactive; / = not tested or not shown; & = joins results of further samples. An excerpt; count on the stated rates, not on these rows.

The line under a structure holds: FGF22 binding	Ecoli rRNA inh RFP	Ecoli rRNA inh	Ecoli rRNA inh OD600
1) Cc1ccc(S(=O)(=O)Nc2ccc3c(c2)CC(=O)N([C@H](C)CO)C[C@@H](C)[C@@H](CN(C)S(=O)(=O)c2ccccc2)O3)cc1
→ i	1.6	-2	-8
2) CNC[C@H]1OCCCC[C@H](C)Oc2ccc(NS(=O)(=O)c3cn(C)cn3)cc2C(=O)N([C@H](C)CO)C[C@@H]1C
→ i	-1.4	8	5
3) C[C@@H]1CCCCO[C@@H](CN(C)Cc2ccc(C(F)(F)F)cc2)[C@@H](C)CN([C@@H](C)CO)C(=O)c2cc(NC(=O)Cc3ccccc3)ccc2O1
→ i	2.0	3	1
4) C[C@H](CO)N1C[C@H](C)[C@H](CN(C)CC2CCCCC2)Oc2c(NS(=O)(=O)c3cn(C)cn3)cccc2C1=O
→ i	-2.8	0	2
5) Cc1noc(C)c1NC(=O)Nc1ccc2c(c1)CC(=O)N([C@@H](C)CO)C[C@@H](C)[C@H](CN(C)Cc1ccc3c(c1)OCO3)O2
→ i	-2.0	-1	6
6) COc1ccc(S(=O)(=O)Nc2ccc3c(c2)CC(=O)N([C@@H](C)CO)C[C@H](C)[C@H](CN(C)S(=O)(=O)c2ccc(F)cc2)O3)cc1
→ i	2.6	-1	-3
7) C[C@@H]1CN(C(=O)OC(C)(C)C)CCN1c1ccc(Br)c(C#N)c1
→ i	-5.5	-37	-62
8) CN1C(=O)c2cc(NC(=O)Nc3ccccc3F)ccc2OC[C@@H]2O[C@@H](CC(=O)O)CC[C@@H]21
→ i	-0.9	-1	0
9) Cc1ccc(S(=O)(=O)N(C)C[C@H]2Oc3ccc(NS(=O)(=O)c4ccc(F)cc4)cc3C(=O)N([C@@H](C)CO)C[C@@H]2C)cc1
→ i	4.3	1	-5
10) CN1CCCCC(NC(=O)c2ccccc2)C1=O (configuration not stated)
→ i	-1.7	-4	0
11) Cc1ccc(S(=O)(=O)N2CC[C@@H]3[C@@H](CO)N(C)c4ccc(C#Cc5cccnc5)cc4[C@@H]32)cc1
→ i	-4.3	-4	-3
12) O=C(c1ccccc1)N1CC[C@@H]2[C@H]1c1cc(-c3ccc(F)cc3)ccc1N[C@@H]2CO
→ i	6.2	-6	-16
13) COc1ccc(S(=O)(=O)N(C)C[C@@H]2Oc3ccc(NC(=O)Nc4ccc(F)cc4)cc3CC(=O)N([C@H](C)CO)C[C@@H]2C)cc1
→ i	3.5	3	-6
14) O=C(Cc1ccccc1)N1C[C@@H]2[C@H](c3ccccc31)[C@H](CO)N2C(=O)C1CCOCC1
→ i	-1.0	1	0
15) C[C@@H]1CCCCO[C@@H](CN(C)S(=O)(=O)c2ccc(F)cc2)[C@H](C)CN([C@H](C)CO)C(=O)c2cc(NC(=O)Cc3ccccc3)ccc2O1
→ i	-1.3	2	0
16) Cc1ccc(S(=O)(=O)N2CC[C@@H]3[C@@H](CO)Nc4ccc(C#Cc5ccccc5F)cc4[C@@H]32)cc1
→ i	-6.1	1	14
17) C[C@@H]1CN([C@@H](C)CO)C(=O)Cc2cc(NC(=O)Nc3ccc(F)cc3)ccc2O[C@@H]1CN(C)C(=O)Nc1ccc(C(F)(F)F)cc1
→ i	0.5	-3	-6
18) COc1ccc(S(=O)(=O)Nc2ccc3c(c2)C(=O)N([C@H](C)CO)C[C@H](C)[C@@H](CN(C)C(=O)Nc2ccccc2)OCCCC[C@H](C)O3)cc1
→ i	1.5	-7	-6
19) Nc1nc2c(ncn2[C@@H]2O[C@H](C(=O)N[C@H](Cc3ccccc3)C(=O)NCCCc3ccccc3)[C@@H](O)[C@H]2O)c(=O)[nH]1
→ i	5.9	18	17
20) Nc1nc2c(ncn2[C@@H]2O[C@H](C(=O)NCC(F)(F)F)[C@@H](O)[C@H]2O)c(=O)[nH]1
→ i	3.4	22	17

Profiles, looked up by structure.
Cc1noc(C)c1NC(=O)Nc1ccc2c(c1)CC(=O)N([C@@H](C)CO)C[C@@H](C)[C@H](CN(C)Cc1ccc3c(c1)OCO3)O2 across the screens: FGF22 binding: i; Ecoli rRNA inh RFP: -2.0; Ecoli rRNA inh: -1; Ecoli rRNA inh OD600: 6
Cc1ccc(S(=O)(=O)N(C)C[C@H]2Oc3ccc(NS(=O)(=O)c4ccc(F)cc4)cc3C(=O)N([C@@H](C)CO)C[C@@H]2C)cc1 across the screens: FGF22 binding: i; Ecoli rRNA inh RFP: 4.3; Ecoli rRNA inh: 1; Ecoli rRNA inh OD600: -5

Additional records:
The line under a structure holds: FGF22 binding	Ecoli rRNA inh RFP	Ecoli rRNA inh	Ecoli rRNA inh OD600
21) COc1ccc(NC(=O)N2CC3(C2)CN(C(=O)C2CCC2)[C@@H](CO)c2c3c3ccc(OC)cc3n2C)cc1
→ i	-2.4	0	-7
22) COc1ccc(NC(=O)Nc2cccc3c2O[C@@H](CN(C)C(=O)Nc2cccc4ccccc24)[C@@H](C)CN([C@H](C)CO)C3=O)cc1
→ i	-0.2	-5	-13
23) O=C(CN1CCOCC1)N[C@@H]1CC[C@H](CCNS(=O)(=O)c2ccccc2F)O[C@H]1CO
→ i	-1.1	1	10
24) COc1cc(N/C(=C\C(=O)c2ccccc2)c2ccccc2)ccc1Cl
→ i	-0.6	-13	-12
25) CN(c1cccnc1)c1ccc(NC(=O)Cc2c[nH]c3ccccc23)cc1-c1ccc(C(C)(C)C)cc1
→ i	2.5	-2	-5
26) COc1cccc(-c2ccc3c(c2)[C@H]2[C@H](CCN2C(=O)c2ccccc2F)[C@@H](CO)N3C)c1
→ i	13	-10	-9
27) C[C@@H]1CN([C@@H](C)CO)C(=O)Cc2cc(NS(C)(=O)=O)ccc2O[C@@H]1CN(C)C(=O)Nc1ccc2c(c1)OCO2
→ i	-1.4	5	9
28) Cc1ccc(S(=O)(=O)N(C)C[C@@H]2OCCCC[C@H](C)Oc3ccc(NC(=O)C4CCCCC4)cc3C(=O)N([C@@H](C)CO)C[C@@H]2C)cc1
→ i	2.7	2	0
29) C[C@@H]1CCCCO[C@H](CN(C)Cc2ccc3c(c2)OCO3)[C@H](C)CN([C@@H](C)CO)C(=O)c2cc(NC(=O)Cc3ccccc3)ccc2O1
→ i	3.5	0	-9
30) CNC(=O)C[C@H]1CC[C@H]2[C@@H](COC[C@@H](O)CN2Cc2ccc(Cl)c(Cl)c2)O1
→ i	-6.2	-11	-9
31) COC(=O)N1C[C@@H]2Oc3nccnc3O[C@@H]2C[C@@H]1c1ccccc1Br
→ i	8.2	8	22
32) Cc1ccc2nc(-c3ccc(CN4CCC(c5nc6ccccc6[nH]5)CC4)cc3)c(-c3ccccc3)nc2c1
→ i	7.7	16	-1
33) COc1ccc(NC(=O)Nc2ccc3c(c2)C(=O)N([C@H](C)CO)C[C@@H](C)[C@H](CN(C)S(=O)(=O)c2cn(C)cn2)OCCCC[C@@H](C)O3)cc1
→ i	0.1	1	-3
34) O=C(C[C@H]1C[C@H]2c3cc(NS(=O)(=O)c4ccc(F)cc4)ccc3O[C@H]2[C@H](CO)O1)NCC1CC1
→ i	12	-1	-26
35) COCC(=O)Nc1ccc2c(c1)C(=O)N(C)[C@@H]1CC[C@@H](CC(=O)OC)O[C@@H]1CO2
→ i	-0.4	2	2
36) Cc1noc(C)c1S(=O)(=O)Nc1ccc2c(c1)CC(=O)N([C@H](C)CO)C[C@@H](C)[C@@H](CN(C)C(=O)Nc1ccc3c(c1)OCO3)O2
→ i	0.0	4	7
37) Cc1noc(C)c1NC(=O)N(C)C[C@@H]1OCCCC[C@H](C)Oc2ccc(NC(=O)Nc3cccc4ccccc34)cc2C(=O)N([C@H](C)CO)C[C@@H]1C
→ i	-1.1	-1	8
38) CN1C(=O)c2cc(NC(=O)C3CCCCC3)ccc2OC[C@@H]2O[C@H](CC(=O)NC3CCCC3)CC[C@H]21
→ i	1.0	0	3
39) C[C@@H]1CN([C@H](C)CO)C(=O)c2cc(NC(=O)Nc3cccc4ccccc34)ccc2O[C@@H](C)CCCCO[C@H]1CN(C)Cc1ccc(C(F)(F)F)cc1
→ i	-3.5	0	0
40) Cc1ccc(S(=O)(=O)N(C)C[C@@H]2Oc3ccc(NS(=O)(=O)c4ccc(F)cc4)cc3C(=O)N([C@H](C)CO)C[C@H]2C)cc1
→ i	-0.4	-1	1
41) O=C(C[C@@H]1CC[C@@H]2[C@H](COC[C@@H](O)CN2C(=O)c2ccc(F)cc2)O1)N1CCCCC1
→ i	27	1	-2
42) CN1CCN(C(=O)C[C@@H]2C[C@@H]3c4cc(NS(=O)(=O)c5ccc(F)cc5)ccc4O[C@@H]3[C@H](CO)O2)CC1
→ i	-1.3	2	8
43) COc1ccc(CNC(=O)C[C@@H]2CC[C@@H](NC(=O)Nc3ccc4c(c3)OCO4)[C@H](CO)O2)cc1
→ i	0.5	1	1
44) CN(C)C(=O)c1cccc(-c2ccc3c(c2)[C@@H]2[C@@H](CCN2Cc2ccccc2F)[C@H](CO)N3)c1
→ i	-1.3	1	-1
45) C[C@@H]1CCCCO[C@H](CN(C)Cc2ccc(C(=O)O)cc2)[C@H](C)CN([C@H](C)CO)C(=O)c2cc(NS(=O)(=O)c3ccccc3)ccc2O1
→ i	2.8	0	4
46) CC1(C(=O)Nc2ccc3c(c2)OCCO3)CN(S(C)(=O)=O)CC(=O)N1CCc1ccccc1F (configuration not stated)
→ i	2.6	2	-2
47) CN(C)C(=O)C[C@H]1C[C@@H]2c3cc(NS(=O)(=O)c4ccc(F)cc4)ccc3O[C@@H]2[C@H](CO)O1
→ i	-2.5	3	-1
48) C[C@H](NC(=O)C[C@H]1CC[C@H]2[C@@H](COC[C@H](O)CN2C(=O)Nc2cccc(Cl)c2)O1)c1ccccc1
→ i	/	i	/
49) COCC(=O)Nc1ccc2c(c1)C(=O)N(C)[C@@H]1CC[C@@H](CC(=O)NC3CCCC3)O[C@H]1CO2
→ i	-1.9	4	6
50) C(=C\c1ccc(C2[C@H]3CNC[C@@H]2N3CC2CCOCC2)cc1)/c1ccccc1 (some centres not stated)
→ i	1.6	-3	-3
51) c1ccc(-c2ccccc2C2Cc3nnccc3CN2)cc1 (configuration not stated)
→ i	2.4	0	8
52) COc1ccc2c3c(n(C)c2c1)[C@@H](CO)N(Cc1ccccc1F)CC31CCN(C(=O)C2CCC2)CC1
→ i	1.8	1	-6
53) COC(=O)C[C@@H]1CC[C@@H]2[C@H](COc3ccc(NS(C)(=O)=O)cc3C(=O)N2C)O1
→ i	-2.1	3	-2
54) CN1c2ccc(C3=CCCCC3)cc2[C@@H]2[C@@H](CCN2C(=O)c2ccccc2F)[C@@H]1CO
→ i	-1.9	0	-1
55) c1cncc(-c2ccc(C3[C@H]4CNC[C@@H]3N4Cc3ccc4c(c3)OCO4)cc2)c1 (some centres not stated)
→ i	-3.6&-1.6	0&3	3&19
56) C[C@H](CO)N1C[C@H](C)[C@H](CN(C)Cc2ccc(Oc3ccccc3)cc2)Oc2ccc(NC(=O)Nc3ccc(C(F)(F)F)cc3)cc2CC1=O
→ i	1.1	6	7
57) COC(=O)C[C@@H]1CC[C@H]2[C@H](COc3ccc(NC(=O)c4ccccc4OC)cc3C(=O)N2C)O1
→ i	0.0	-5	-9
58) CC(C)NC(=O)N(C)C[C@H]1Oc2c(NC(=O)Nc3ccc4c(c3)OCO4)cccc2C(=O)N([C@@H](C)CO)C[C@@H]1C
→ i	-1.3	6	10
59) Cc1cc(N2CCNC[C@H]2C)ccc1N1CCS(=O)(=O)CC1
→ i	2.5	12	8
60) C[C@@H]1CCCCO[C@H](CN(C)S(=O)(=O)c2cccs2)[C@@H](C)CN([C@@H](C)CO)C(=O)c2cc(NC(=O)c3ccccc3)ccc2O1
→ i	3.0	3	3
61) O=C(N[C@H](Cc1ccccc1)C(=O)NCCCc1ccccc1)[C@H]1O[C@@H](n2ccc(=O)[nH]c2=O)[C@H](O)[C@@H]1O
→ i	-0.1	19	9
62) COCC(=O)Nc1ccc2c(c1)[C@@H]1C[C@H](CC(=O)N3CCN(C)CC3)O[C@H](CO)[C@@H]1O2
→ i	-1.6	3	8
63) CNC(=O)C[C@@H]1CC[C@H]2[C@H](COc3ccc(NC(=O)C(C)C)cc3C(=O)N2C)O1
→ i	-1.1	4	6
64) C[C@@H]1CCCCO[C@H](CN(C)C(=O)Nc2ccc3c(c2)OCO3)[C@H](C)CN([C@H](C)CO)C(=O)c2cc(NC(=O)Cc3ccccc3)ccc2O1
→ i	-1.6	0	0
65) CN(C)CC(=O)Nc1ccc2c(c1)[C@H]1C[C@H](CC(=O)N3CCOCC3)O[C@H](CO)[C@H]1O2
→ i	-0.8	6	1
66) O=C(N[C@@H](Cc1cccnc1)C(=O)N1CCC[C@H]1C(=O)NC1CCCC1)c1ccc(Cl)c(Cl)c1
→ i	9.0	-17	-12
67) C[C@@H]1CCCCO[C@H](CN(C)Cc2ccc(C(F)(F)F)cc2)[C@H](C)CN([C@H](C)CO)C(=O)c2cc(NC(=O)Cc3ccccc3)ccc2O1
→ i	14	2	-7
68) C[C@H]1CN([C@@H](C)CO)C(=O)Cc2cc(NC(=O)CCCCCC(=O)Nc3ccccc3N)ccc2O[C@H]1CN(C)C(=O)Nc1ccc(C(F)(F)F)cc1
→ i	2.9	4	2
69) COC(=O)C(C(=O)OC)c1ccccc1NS(=O)(=O)c1cccc2ccccc12
→ i	-12	-45	-72

Among those listed so far, 2 contain a tert-butyl group:
The line under a structure holds: FGF22 binding	Ecoli rRNA inh RFP	Ecoli rRNA inh	Ecoli rRNA inh OD600
7) C[C@@H]1CN(C(=O)OC(C)(C)C)CCN1c1ccc(Br)c(C#N)c1
→ i	-5.5	-37	-62
25) CN(c1cccnc1)c1ccc(NC(=O)Cc2c[nH]c3ccccc23)cc1-c1ccc(C(C)(C)C)cc1
→ i	2.5	-2	-5
